Screens as filed in PubChem.
Mtb hypoxia rep – reduces hypoxia-regulated biosensor signal in M. tuberculosis; M. tuberculosis hypoxia-regulated fluorescent reporter, fluorescence; actives 0.1% (n = 300,000); fluorescence inhibition, % (concentration not given with the values);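 active means 35 to 45% if threefold the growth effect, above 45% if 1.5-fold the growth effect; inactive means the rest, general growth blockers included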;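 further: wells of about 50 µL received 100 nL stock; 0% = vehicle wells and 100% = reference inhibitor wells; whole bacteria with a GFP reporter of the hypoxia response; strong numbers were not always called active; many hits fall short of the cut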
Bead autofluor – compound fluorescence in toxin protease inhibitor counterscreen; compound autofluorescence counterscreen, microsphere flow cytometry; hits give high values; fluorescence intensity (test concentration not listed); actives 3.1% (n = 360,000);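 active means at least 3 SD above the mean of all compounds, about 16000 in these data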;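 further: 100 nL of 1 mM stock went into each well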
RN4220 kill – kills Staphylococcus aureus RN4220; S. aureus RN4220 growth, OD600, 16 h; inhibition, % (no concentration beside the values); actives 0.33% (n = 330,000); AID 1259311;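 active means z-score of -3 or lower and OD600 up to 0.18 on both plates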;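 further: plate controls were untreated cells for no effect and reference antibiotic for full effect; stock transfer was 100 nL into about 80 µL; one replicate is shown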
BJeLR lethal – BJeLR cell viability loss; BJeLR (HRASV12) viability, CellTiter-Glo ATP luminescence, 48 h; reference of the scale not given here; inhibition, % (concentration not given with the values); actives 0.17% (n = 300,000); AID 1554;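 active means replicate mean above 50%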;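 further: 50 nL library stock added to about 25 µL; numbers are from one replicate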
Sa ugtP lethal – compounds lethal to S. aureus RN4220 ugtP deletion mutant. OD600 growth, 16 h; some inactives read as strong as hits. growth inhibition, % (test concentration not listed). actives 0.54% (n = 330,000);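 active means z-score under -3 and OD600 up to 0.15 on both plates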;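 further: plate controls were untreated wells for no effect and antibiotic for full effect; wells of about 80 µL received 100 nL stock; the first replicate is given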
PrP UTR inh – inhibition of PrP 5' UTR reporter expression. AID 488862. cell-based PrP 5' UTR mRNA reporter, plate reader. actives 0.35% (n = 340,000). inhibition, % (test concentration not listed);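 active means every replicate at 50% or more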;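 further: 0 = median of the neutral control wells; tested in H4 reporter cells; numbers are from one replicate; inactives centre near -14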
Mtb hypoxia rep growth – second read-out of Mtb hypoxia rep, no call of its own (marks repeat the call); growth inhibition, %; measured here: M. tuberculosis growth (absorbance);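 0% = vehicle and 100% = reference antibiotic; read after six days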
* hit, by the source's call; / = no result given; & = joins results of further samples. Outcome played no part in choosing rows. About 4% of those tested had a hit in this group.

A first look, 13 compounds:
SMILES	Mtb hypoxia rep	Mtb hypoxia rep growth	Bead autofluor	RN4220 kill	BJeLR lethal	Sa ugtP lethal	PrP UTR inh
COc1ccc(N2CCN(C(=O)c3ccc(-n4nc(C)cc4C)cc3)CC2)cc1	4	14	25032*	9.6	-1	2	-15
CC(Oc1cccc(Cl)c1)c1ccnc2nc(/N=C/N(C)C)nn12 (stereo not drawn)	/	/	2128	/	1	/	-11
CC(=O)Nc1ccc(S(=O)(=O)Nc2nccc(C)n2)cc1	10	3	3405	4.8	-6	7	-23
Cc1cccc(OCC(=O)Nc2ccncc2)c1C	8	2	4142	6.2	18	13	-27
COc1ccc(S(=O)(=O)N2CCCCCC2)cc1C(=O)Nc1ccc(C(=O)N(C)C)cc1	3	-3	/	6.0	/	21	-13
COC(=O)NC(=S)Nc1ccc(Oc2ccc(Cl)cc2)c(Cl)c1	7	10	5375	-3.1	3	-2	-22
CCc1ccc(N(CC(=O)NCc2ccc3c(c2)OCO3)C(=O)c2csnn2)cc1	-7	4	3893	1.3	0	-5	-6
O=C(CC1S/C(=N/N=C/c2cccs2)NC1=O)Nc1ccccc1F (stereo not drawn)	/	/	3821	/	9	/	-13
Cn1c(=O)[nH]c(=O)c2c1nc(NC1CCCC1)n2Cc1ccccc1	14	7	3628	2.9	-4	5	-10
COc1cccc(-c2noc(CCC(=O)Nc3cccnc3)n2)c1	/	/	5382	1.6	-6	5	-27
Cn1cc(/C=C/c2nc3ccccc3c(=O)n2-c2cccc([N+](=O)[O-])c2)c2ccccc21	6	8	2671	1.5	2	5	-33
CCN(CC)Cc1ccc(NC(=O)c2sc3cc(Cl)ccc3c2Cl)cc1	20	17	5764	13	13	83	-2
COc1ccc(-c2cc(C(=O)NN=Cc3cc(OC)c(OC)cc3OC)c3ccccc3n2)cc1	17	2	/	5.6	/	6	/

The whole of this part, from the first entry:
SMILES	Mtb hypoxia rep	Mtb hypoxia rep growth	Bead autofluor	RN4220 kill	BJeLR lethal	Sa ugtP lethal	PrP UTR inh
COc1ccc(N2CCN(C(=O)c3ccc(-n4nc(C)cc4C)cc3)CC2)cc1	4	14	25032*	9.6	-1	2	-15
CC(Oc1cccc(Cl)c1)c1ccnc2nc(/N=C/N(C)C)nn12 (stereo not drawn)	/	/	2128	/	1	/	-11
CC(=O)Nc1ccc(S(=O)(=O)Nc2nccc(C)n2)cc1	10	3	3405	4.8	-6	7	-23
Cc1cccc(OCC(=O)Nc2ccncc2)c1C	8	2	4142	6.2	18	13	-27
COc1ccc(S(=O)(=O)N2CCCCCC2)cc1C(=O)Nc1ccc(C(=O)N(C)C)cc1	3	-3	/	6.0	/	21	-13
COC(=O)NC(=S)Nc1ccc(Oc2ccc(Cl)cc2)c(Cl)c1	7	10	5375	-3.1	3	-2	-22
CCc1ccc(N(CC(=O)NCc2ccc3c(c2)OCO3)C(=O)c2csnn2)cc1	-7	4	3893	1.3	0	-5	-6
O=C(CC1S/C(=N/N=C/c2cccs2)NC1=O)Nc1ccccc1F (stereo not drawn)	/	/	3821	/	9	/	-13
Cn1c(=O)[nH]c(=O)c2c1nc(NC1CCCC1)n2Cc1ccccc1	14	7	3628	2.9	-4	5	-10
COc1cccc(-c2noc(CCC(=O)Nc3cccnc3)n2)c1	/	/	5382	1.6	-6	5	-27
Cn1cc(/C=C/c2nc3ccccc3c(=O)n2-c2cccc([N+](=O)[O-])c2)c2ccccc21	6	8	2671	1.5	2	5	-33
CCN(CC)Cc1ccc(NC(=O)c2sc3cc(Cl)ccc3c2Cl)cc1	20	17	5764	13	13	83	-2
COc1ccc(-c2cc(C(=O)NN=Cc3cc(OC)c(OC)cc3OC)c3ccccc3n2)cc1	17	2	/	5.6	/	6	/
CCOCCCN(C)C1CCN(C(=O)c2oc3ccccc3c2NC(=O)c2ccc([N+](=O)[O-])cc2)CC1	12	13	5827	1.6	3	10	-1
COc1ccc(OC)c(S(=O)(=O)N2C(C)CCCC2C)c1 (stereo not drawn)	/	/	3445	3.9	-2	7	1
COc1cccc(NC(=O)CN(C)CC(=O)NCC(=O)Nc2ccc(F)cc2)c1	0	12	3744	6.0	/	4	-27
COc1ccc(NC(=S)NC(=O)/C=C/c2ccccc2)cc1	17	24	3719	-4.0	1	8	-21
COc1ccc2ccccc2c1CNC(=O)CC1C(=O)NCCN1CC(C)(C)C (stereo not drawn)	12	7	6918	5.4	-14	6	-7
COc1cccc(/C=N/NC(=O)CCn2c3ccccc3c3ccccc32)c1	/	/	2146	/	-9	/	-22
CCn1ncc(C(=O)Nc2cccc(Cl)c2)c1C	8	5	9792	0.1	-12	9	-75
Cc1ccccc1NC(=S)NC(=O)c1cncc(Br)c1	7	7	2450	1.3	-5	29	-30
COCCn1c(=O)sc2ccccc2c1=O	2	11	3463	-3.9	6	11	-25
COc1ccc(N2CCN(C(=O)COC(=O)CNC(=O)c3ccc(C)cc3)CC2)cc1	/	/	4329	/	20	/	-2
Cc1ccc2nc(-c3ccccc3)cc(C(=O)N3CCN(S(=O)(=O)c4c(C)noc4C)CC3)c2c1	-7	0	4144	3.6	/	2	-11
CCOC(=O)/C=C1\NC(=O)C(C)S1 (stereo not drawn)	-1	7	5745	6.6	-1	2	-37
CN(Cc1ccccc1)CC(O)COc1ccc(CNCCc2cccnc2)cc1 (stereo not drawn)	5	9	3659	2.1	0	14	5
Cc1cc(C)n(CCOc2ccc(Cl)cc2Cl)n1	2	10	3831	7.2	3	-3	-7
CCn1c(CNC(=O)c2cccc(C)c2)nnc1SCC(=O)N1CCOCC1	0	1	5485	2.1	1	0	-19
COc1cc(C)c(Cl)c(C)c1S(=O)(=O)NCc1ccc2c(c1)OCO2	1	14	3170	6.1	-5	-5	1
Cc1c(O)ccc(C=NNc2ncccc2[N+](=O)[O-])c1O	16	2	/	5.5	/	9	/
Cc1ccc(NC(=O)CN2C(=O)S/C(=C\c3ccccn3)C2=O)cc1C	8	10	5120	5.5	/	1	-24
Cc1ccccc1NC(=O)CSc1n[nH]c(-c2ccco2)n1	-2	4	4051	8.7	-8	5	-45
CCOC(=O)C[N+](C)(C)CCOC1CC2CCC1(C)C2(C)C (stereo not drawn)	17	6	2565	1.3	2	13	-11
CC1CC(C)CN(C(=O)C(Cc2ccccc2)NC(=O)c2ccccc2)C1 (stereo not drawn)	1	-4	/	-4.1	18	-3	2
O=C(NC1CC1)C1CCN(c2ncccn2)CC1	1	-4	4550	7.0	-1	4	-25
CN(Cc1ccco1)C(=O)C1CCC(=O)N1Cc1ccc(F)cc1 (stereo not drawn)	2	-1	2808	-15	9	-4	-12
COc1cccc(-c2nnc(NC(=O)c3ccc(S(=O)(=O)N4CC(C)OC(C)C4)cc3)o2)c1 (stereo not drawn)	/	/	3138	67	0	43	8
O=C(O)c1ccccc1NCc1ccsc1	2	1	3574	3.3	2	14	/
Cc1csc(NC(=O)CN2C(=O)COc3ccc(Cl)cc32)n1	-10	-4	/	2.2	1	1	-9
CCCc1cc2c(=O)c(-c3ccc4c(c3)OCCO4)coc2cc1OS(C)(=O)=O	11	6	2296	15	-1	16	-76
COC(=O)c1nc2ccccc2s1	11	6	3871	1.4	-9	-3	-5
CC(=NNC(=O)c1cc2c(s1)CCC(C)C2)c1cccnc1 (stereo not drawn)	2	7	/	8.2	/	-21	/
Cn1cnnc1SC1CCCCC1NS(=O)(=O)c1ccccc1 (stereo not drawn)	-4	6	23278*	6.1	-2	-10	-9
COc1ccc(-n2c(SCC(=O)C(C)(C)C)nc3c(sc(=S)n3-c3ccccc3)c2=O)c(OC)c1	9	1	3978	-1.0	-12	17	-22
BrCC(Br)(Br)Br	10	6	5666	-0.2	/	-3	-2
CC(=C/c1ccc(C(C)C)cc1)/C=N/NC(=O)CSc1ccccn1	/	/	2632	/	-1	/	-58
CCOC(=O)c1cc(C#N)c(SCC(=O)OC)[nH]c1=O	-6	5	3808	8.8	-8	11	-17
COc1ccccc1/C=C/C(=O)NCC(=O)N=Nc1c(O)[nH]c2ccccc12	6	2	5496	-1.9	6	-10	3
CC(C)Oc1ccc(-c2cc(C(=O)NCCN3CCOCC3)c3ccccc3n2)cc1	8	9	2702	4.1	-12	-5	-32
COc1ccc(OCC(=O)Nc2cccc(S(=O)(=O)N(C)c3ccccc3)c2)c([N+](=O)[O-])c1	2	2	5491	0.6	/	1	/
O=C(CCNC(=O)c1ccccc1Cl)Nc1cc(S(=O)(=O)N2CCOCC2)ccc1N1CCCC1	11	7	5402	2.6	10	4	-18
Cn1c(=O)c2c(nc(CN3CCN(c4ccccc4)CC3)n2CCc2ccccc2)n(C)c1=O	/	/	4975	3.2	-5	20	-6
CCOc1cc(C(=O)Nc2cc(C)on2)cc(OCC)c1OCC	-3	1	6457	4.5	2	13	-18
CS(=O)(=O)N(CCc1ccccc1)CC(=O)N1CCN(c2ccc(F)cc2)CC1	/	/	4340	-1.4	1	2	2
Clc1ccc(-c2cn3nc4c(nc3n2)CCCC4)cc1	/	/	2770	0.8	11	2	47
CCCCSc1nc(C)c(CC(=O)OC)c(=O)[nH]1	/	/	4073	1.5	/	1	-14
COc1ccccc1NS(=O)(=O)c1cccc(C(=O)N(C)Cc2cccs2)c1	-6	6	5536	-1.8	9	-6	-15
CC(C)(C)OC(=O)CC1CC=CCC(CC(=O)NC(CO)Cc2ccccc2)C(=O)NC(Cc2ccccc2)COC1=O (stereo not drawn)	4&4&11&-10	9&14&6&-2	/	3.0&4.9&4.8&0.3	/	-2&5&1&3	/
CN(C)CCC=C1c2ccccc2CSc2ccccc21	-2	4	/	-6.0	/	-3	/
CS(=O)(=O)c1cnc2c(-c3ccc(F)cc3)cnn2c1N	3	9	20368*	4.4	-4	-15	-47

Carrying on:
SMILES	Mtb hypoxia rep	Mtb hypoxia rep growth	Bead autofluor	RN4220 kill	BJeLR lethal	Sa ugtP lethal	PrP UTR inh
O=C(CC1CC=CCCC(Cc2ccc(F)cc2)C(=O)OCC(c2ccccc2)NC1=O)NCCO (stereo not drawn)	8	10	/	1.3	/	-13	/
Cc1ccc(S(=O)(=O)N(C)C)cc1NC(=O)COC(=O)/C(=C/c1ccc(F)cc1)c1cccs1	/	/	2526	/	5	/	1
COc1ccc(CC(=O)NNC2=Nc3cccc4cccc2c34)cc1	/	/	3615	/	2	/	0
CCOC(=O)C1(Cc2cccc(F)c2)CCN(C2CCOCC2)CC1	0	15	2369	-2.4	8	-1	-20
O=C(COC(=O)c1ccccc1SCC(=O)N1CCCC1)Nc1ccc(OC(F)F)cc1	2	8	5801	2.8	8	2	-12
CCOC(=O)c1ccccc1NC(=O)C1CCCO1 (stereo not drawn)	18	8	3386	2.0	-1	9	-30
CCN1CCN(CCC(=O)Nc2ccccc2)CC1	1	1	3276	-0.2	10	1	-30
CCCCC(=O)Nc1ccc(C(=O)Nc2ccc(S(=O)(=O)Nc3ccc(C)cc3)cc2)cc1	12	3	2545	3.0	-6	5	0
CCN(C(=O)c1c(-c2ccccc2Cl)noc1C)C1CCCCC1	2	9	3538	9.9	-5	0	-32
Cc1ccc(-c2ccc(=O)n(Cc3cc(C)ccc3C)n2)cc1	-4	-2	3035	0.5	-6	4	-8
CNc1c(NS(=O)(=O)c2ccc3c(c2)CCCC3)c(=O)oc2ccccc12	3	-3	2938	2.8	1	11	-9
CCCCc1nc2cc(C(=O)N3CCC(OC)CC3)ccc2o1	4	5	4329	1.8	7	6	-25
O=C(C1CCN(Cc2cc(Cl)ccc2O)CC1)N1CCN(Cc2ccccc2)CC1	1	8	9934	6.4	9	-11	-14
Cc1ccc2oc(=O)cc(CN3CCC(C)CC3)c2c1	-7	-4	9590	5.7	0	-10	-14
O=C1COc2ccc(C(=O)COC(=O)Cc3ccccc3F)cc2N1	10	3	6565	0.0	3	8	-14
C[N+]1(C2CCC3CCC2C3O)CCCC1 (stereo not drawn)	1	-2	9807	2.5	8	10	-11
Cn1nc(-c2ccccc2)c(C(=O)NC(C(=O)O)c2ccccc2)c1Cl (stereo not drawn)	6	-3	4444	3.8	-3	6	-12
O=C(CSc1nc2ccccc2n1CCc1ccccc1)N1CCOCC1	0	0	3078	2.9	-1	7	-21
